Mtb H37Rv: M. tuberculosis H37Rv growth inhibitors, H37Rv strain (AID 1626); hit rate 0.95% among 220,000; inhibition, % at 10 µM, or IC50 in µM where a hit was titrated; M. tuberculosis H37Rv growth inhibition; higher % means a stronger effect;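 active = confirmed in a dose series; inconclusive = inhibition above 80% but not taken into the dose series; inactive = below 80% or under 30% at every dose of the series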;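 also: bacteria incubated seven days before Alamar blue readout; 0% = bacteria only wells and 100% = bacteria with antibiotic wells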
RecA intein inh: inhibitors of M. tuberculosis RecA intein splicing; P9WHJ3; hit rate 0.75% among 290,000; inhibition, %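 (about 9 µM by stock and volumes)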; cell-free RecA intein splicing, fluorescence; in the data active = inhibition above about 30%; inconclusive = no clear call, values can overlap the other calls;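 also: 0% = vehicle wells and 100% = reference inhibitor control wells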
Target sequence (P9WHJ3 whole entry, looked up): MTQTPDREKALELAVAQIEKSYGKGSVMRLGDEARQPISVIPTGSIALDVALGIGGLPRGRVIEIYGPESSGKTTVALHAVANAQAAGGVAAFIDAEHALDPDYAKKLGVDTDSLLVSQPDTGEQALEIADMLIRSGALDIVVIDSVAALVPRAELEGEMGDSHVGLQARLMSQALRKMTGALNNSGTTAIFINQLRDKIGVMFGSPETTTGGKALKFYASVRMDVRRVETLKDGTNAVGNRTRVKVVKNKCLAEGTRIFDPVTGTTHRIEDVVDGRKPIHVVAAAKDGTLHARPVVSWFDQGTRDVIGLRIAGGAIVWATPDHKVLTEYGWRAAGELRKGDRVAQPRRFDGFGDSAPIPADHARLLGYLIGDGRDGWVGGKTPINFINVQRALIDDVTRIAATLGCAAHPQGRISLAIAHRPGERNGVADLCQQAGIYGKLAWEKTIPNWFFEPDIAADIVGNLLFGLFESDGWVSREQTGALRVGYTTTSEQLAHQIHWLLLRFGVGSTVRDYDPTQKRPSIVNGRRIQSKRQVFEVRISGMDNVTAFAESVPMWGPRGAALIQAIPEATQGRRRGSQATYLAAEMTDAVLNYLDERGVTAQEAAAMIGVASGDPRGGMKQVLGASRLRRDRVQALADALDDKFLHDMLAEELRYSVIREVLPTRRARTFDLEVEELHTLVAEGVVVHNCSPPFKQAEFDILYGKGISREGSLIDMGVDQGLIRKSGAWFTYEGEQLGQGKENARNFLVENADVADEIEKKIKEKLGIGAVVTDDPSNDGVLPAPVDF
Arbovirus anti: blocks arbovirus infection; arbovirus infection cell-based antiviral screen; inhibition, % at 10 µM; hit rate 0.37% among 200,000;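 active = inhibition from about 30%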;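 also: bluetongue infection of BSR cells; cell survival read as ATP light after 72 h; 0% = infected wells without compound and 100% = uninfected wells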
YopH inh: inhibitors of Yersinia enterocolitica YopH tyrosine phosphatase; hit rate 0.16% among 140,000; fluorescence Ex485/Em525; inhibition, %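 (about 10 µM by stock and volumes)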; AID 898;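 active = inhibition of 50% or more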;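 also: controls were vehicle for no effect and minimum signal wells for full effect; inactives centre near -20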
Mtb bLac sens: beta-lactam sensitization of Mtb H37Rv | M. tuberculosis H37Rv growth with meropenem, percent inhibition; hits of this screen are not shown here | inhibition, % at 25 µM | hit rate 0.27% among 330,000 | AID 434955;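 active = about 74% or more and at least 40 points above the plate without the antibiotic, then above 30% in a dose series; inconclusive = first-round hits that could not be retested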;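 also: growth measured after seven days incubation then overnight dye step; 0% = bacteria only wells and 100% = bacteria with antibiotic; twin plates without the antibiotic show which effects depend on it; some results filed as inactive read as strong as hits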
Arbovirus anti repeat: recorded beside Arbovirus anti, whose call it bears; inhibition, %; measured here: 10K subset replicate screen; many hits read low in the repeat;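 first of two repeat runs on a subset; 0% = infected and 100% = uninfected wells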
The depositor's hits bear a star; ? = inconclusive; . = not tested or not shown. Only part of the results is shown (hit frequency here may not be typical).

SMILES | Mtb H37Rv | RecA intein inh | Arbovirus anti | YopH inh | Mtb bLac sens | others
COc1ccccc1-n1c(SCC(=O)Nc2cccc(S(N)(=O)=O)c2)nc2ccccc2c1=O | -5% | . | 7 | . | -3
COc1cccc2c(O)cc(=O)n(C)c12 | -4% | -5.0 | -4 | -27 | -2
CCc1ccc(-c2c(C)sc(NC(=O)C3CCC3)c2C#N)cc1 | 5% | 0.3 | 5 | -19 | 1
COc1ccc(NC(=O)CCN2C(=O)C3C4C=CC(C4)C3C2=O)cc1 (stereo unspecified) | 2% | 2.0 | 6 | . | 22
Cc1cccc(NC(=O)CCCN2C(=O)c3ccccc3C2=O)n1 | -8% | -2.1 | -3 | 3 | 2
Cc1ccc(NC(=O)Cc2nnc(N)s2)cc1 | -3% | -1.1 | . | . | -6
COc1ncccc1C(=O)N1CCC(n2nccc2NC(=O)CC(C)C)CC1 | . | 1.1 | . | . | -4
COc1ccc(C)cc1NC1=NCCCS1 | 1% | -0.5 | -2 | . | 3
O=C(Cc1ccccc1)NC1CCS(=O)(=O)C1 (stereo unspecified) | -7% | 0.1 | 10 | -1 | -3
CCc1ccccc1NC(=O)N1CCCc2ccccc21 | . | -0.3 | . | . | 0
O=C(Nc1nn[nH]n1)c1ccc(S(=O)(=O)N2CCCCC2)cc1 | -1% | -0.4 | 1 | . | 5
O=C(N/N=C/C(Br)=C\c1ccccc1)c1ccco1 | 48% | 1.5 | . | . | 3
Cc1ccc(S(=O)(=O)NCc2cccnc2)cc1C(=O)NC1CCCCC1 | . | -2.3 | . | . | -7
COc1cc(C2C(C#N)=C(N)OC3=C2C(=O)CCC3)ccc1OC(=O)N1CCOCC1 (stereo unspecified) | -2% | 0.2 | 8 | -21 | 0
CCC(C)NC(=O)NC1C(NC(=O)NC(C)CC)N(C)C(=O)N1C (stereo unspecified) | -7% | . | -6 | -31 | 4
O=C(Cn1ncc2c3ccccc3n(Cc3ccccc3F)c2c1=O)NCCCN1CCCC1=O | . | -0.8 | . | . | 98
CCN(CC)S(=O)(=O)c1cccc(NC(=O)CCNC(=O)c2ccccc2Cl)c1 | . | 0.9 | . | . | 1
NC(=O)c1cccc(CC(=O)c2ccccc2)c1 | -6% | 0.7 | . | . | 5
CN(C(=O)CN1C(=O)S/C(=C\c2ccccc2F)C1=O)C1CCS(=O)(=O)C1 (stereo unspecified) | . | -3.6 | . | . | 5
Cc1[nH]c2ccccc2c1C(=O)CSc1ccccc1 | -11% | 4.1 | -6 | -35 | 2
O=C(Nc1c(C(=O)N2CCOCC2)oc2ccccc12)c1cccc([N+](=O)[O-])c1 | . | 0.3 | . | . | 0
O=C(CN1CCC(c2nc3ccccc3s2)CC1)NCc1cccs1 | 1% | 3.7 | 4 | -1 | 12
CC(C)OCCCNC(=S)Nc1ccc(S(N)(=O)=O)cc1 | 3% | -5.4 | 8 | -27 | 11
Cc1ccc(C)c(Cn2nnc3c(=O)[nH]c(C4CCN(C(=O)c5cccs5)CC4)nc32)c1 | 54% | 0.5 | -2 | 2 | 19
Cc1cc(C)nc(SCc2ccc(F)cc2)n1 | -11% | 1.3 | -4 | . | -11
CC(CCc1ccccc1)NC(=O)c1ccncc1 (stereo unspecified) | -6% | -0.3 | 10 | -13 | -2
CN(CCC1CCCCO1)C(=O)CCc1nnc(C2CCCCC2)o1 (stereo unspecified) | -3% | 1.2 | 9 | . | 1
CC1=NN(C(=O)CCCc2ccccc2)C(O)(C(F)(F)F)C1 (stereo unspecified) | 0% | 0.6 | -1 | . | -8
CCOc1ccccc1C(=O)n1nc(C)cc1C | -3% | 0.4 | 7 | -35 | 6
COc1ccc(C2C(C(C)=O)=C(C)Nc3ncnn32)c(OC)c1OC (stereo unspecified) | . | 1.0 | . | . | -9

Grouped by structure: the compounds so far with a cyano group
SMILES | Mtb H37Rv | RecA intein inh | Arbovirus anti | YopH inh | Mtb bLac sens | others
CCc1ccc(-c2c(C)sc(NC(=O)C3CCC3)c2C#N)cc1 | 5% | 0.3 | 5 | -19 | 1
COc1cc(C2C(C#N)=C(N)OC3=C2C(=O)CCC3)ccc1OC(=O)N1CCOCC1 (stereo unspecified) | -2% | 0.2 | 8 | -21 | 0

The list goes on:
SMILES | Mtb H37Rv | RecA intein inh | Arbovirus anti | YopH inh | Mtb bLac sens | others
CCOc1ccc(N(CC)C(=O)COc2cc(=O)n(CC)c3ccccc23)cc1 | -20% | 1.1 | -10 | -13 | 6
CN1C(=O)N(C)C(=O)C2(Cc3cc(NC(=O)c4ccc(F)cc4)ccc3N3CCCC32)C1=O (stereo unspecified) | . | -14 | . | . | -3
Cn1cc(C(=O)c2ccc(Cl)cc2Cl)cc1C=O | 9% | 1.6 | -2 | . | -2
CC1(C)CC(=O)C(C(C#Cc2ccccc2)C2=C(O)CC(C)(C)CC2=O)=C(O)C1 | -4% | 1.2 | 4 | -9 | 4
Cc1cc(C(=O)COC(=O)c2ccc3c(c2)OCO3)c(C)n1Cc1cccs1 | -7% | -3.3 | -3 | -28 | 5
COc1cccc(COC(=O)c2c(C)nn(-c3ccccc3)c2Cl)c1OC | . | 13 | . | . | 1
O=C(CN(C(=O)c1csnn1)c1ccc(F)cc1)NCc1ccc(F)cc1 | 1% | 0.7 | -4 | . | -1
CCN1CCN(Cc2ccc(NC(=O)c3ccc(C)c(NC(=O)c4csc(-c5ccncc5)n4)c3)cc2C(F)(F)F)CC1 | 34% | 5.4 | . | . | 100
O=c1[nH]c(NCCO)c(N=Cc2ccccc2)c(=O)[nH]1 | . | -76 | . | . | 0
COc1cc(C(O)P(=O)(OC2CCCCC2)c2ccc(N(C)C)cc2)cc(OC)c1OC (stereo unspecified) | -8% | -0.7 | 6 | -38 | 3
Cc1ccc(-c2c(C(=O)N/N=C/C3CCCCC3)nnn2-c2nonc2N)cc1 | . | -1.6 | . | . | 4
CCOC(=O)COc1ccc2c(c1)c(C(C)=O)c(C)n2-c1ccccc1 | . | 1.0 | . | . | 5
O=C(O)C1CC(=O)N(c2ccc(OCc3ccccc3)cc2)C1 (stereo unspecified) | -9% | -1.2 | 13 | -27 | .
CCOC(=O)c1ccc(NC(=O)CCc2nc(-c3ccc(Cl)cc3)no2)cc1 | 0.9µM* | 3.3 | -3 | -34 | 99
Cc1ccc(NC(=O)CCn2c(=O)[nH]c3ccsc3c2=O)cc1 | -5% | 1.6 | 1 | . | -5
COc1cc2ccccc2cc1C(=O)Nc1ccccc1Cl | . | 1.9 | . | . | 0
O=[N+]([O-])c1ccc2nc(CN3CCCCC3)[nH]c2c1 | -4% | -0.3 | 7 | . | -5
O=C(Nc1nnc(S(=O)(=O)N2CCN(c3ccc(F)cc3)CC2)s1)c1ccco1 | . | -0.7 | . | . | -2
C/C=C/Cn1c(Br)nc2c1c(=O)n(C)c(=O)n2C | -9% | -0.2 | -2 | -31 | 4
O=c1[nH]c(N/N=C/c2cc3c(cc2[N+](=O)[O-])OCO3)nc2ccccc12 | -10% | -0.9 | . | . | -3
CC(NC(=O)c1ccc(Cl)cc1)c1nnc(SCc2ccc([N+](=O)[O-])cc2)n1C (stereo unspecified) | . | -0.3 | -5 | -50 | 2
CS(=O)(=O)c1ccc(C(=O)Nc2cc(S(C)(=O)=O)ccc2Cl)cc1 | 3% | -0.1 | -3 | -17 | 2
COc1ccc(C(=O)/C=C/N2CCCCC2)cc1OC | -3% | 1.1 | -4 | -49 | -1 | Arbovirus anti repeat=-10
O=C(CSc1ccccc1)N(c1ccc(Br)cc1)c1nccs1 | 13% | 4.8 | 7 | -48 | 1
COc1cc(CNCCc2ccc(S(N)(=O)=O)cc2)ccc1OCc1ccc(Cl)cc1 | 10% | 1.6 | -30 | -21 | 19
Cc1cc(C)n(C(=O)CCCCCC(=O)n2nc(C)cc2C)n1 | 0% | 2.4 | -5 | -23 | -14
CCOc1ccc(C(=O)NCc2ccccc2OC)cc1 | 1% | -1.6 | 0 | -2 | 4
Fc1cccc(CN2CCN(Cc3nc(-c4cnccn4)no3)CC2)c1 | 3% | -0.4 | 0 | . | -10
CCN(CC)C(=O)CSc1nc2ccccc2c(=O)n1CC | -10% | -0.6 | -1 | -7 | 2
CN(C)CC(O)CN(c1ccccc1)c1ccccc1 (stereo unspecified) | 4% | -0.7 | . | . | -9
CCNC(=O)c1ccc(-n2nc(C)cc2-c2ccccc2)cc1 | -4% | -2.3 | -9 | -31 | -7
COCCCN1CC(=O)N2C(c3ccc(C)cc3)c3[nH]c4ccccc4c3C[C@H]2C1=O (stereo partly specified) | . | 1.9 | . | . | ?
O=C(Nc1cc(N2CCCCC2)ncn1)c1ccccc1 | -1% | -4.8 | -17 | . | 4
Cc1cc(N/C=C/C(=O)c2cccs2)ccc1F | -3% | -1.3 | -7 | . | 2
FC(F)(F)c1ccccc1NC(=S)NN1CCOCC1 | -4% | -0.4 | 3 | -7 | -15
Cc1nnsc1SCCNC(=O)Nc1ccc(Cl)cc1 | 8% | 0.2 | 10 | . | 3
Cc1c(OCC(=O)N2CCC[C@@H]2C(=O)O)ccc2c3c(c(=O)oc12)CCC3 | . | 19 | . | . | 3
O=C(NN=C1C2CC3CC1CC(Cl)(C3)C2)c1ccccn1 | 56% | -0.2 | 2 | . | 100
CC(C)Cc1nnc(NC(=O)CCC(=O)N2CCN(c3ccc(Cl)cc3)CC2)s1 | . | -0.6 | . | . | 2
CC(=O)NC(=C(Cl)Cl)S(=O)(=O)c1ccccc1 | -6% | 7.6 | -14 | . | -4
O=C(CN1C(=O)/C(=C\c2cccc(Br)c2)Oc2ccccc21)NCC1CCCO1 (stereo unspecified) | . | -59 | . | . | -1
O=C(O)C1CC=CCC1C(=O)N1CCCC1 (stereo unspecified) | -12% | -2.1 | 0 | -27 | -10
COc1ccccc1N1CCN(C(=O)CN(c2ccccc2OC)S(=O)(=O)c2ccccc2)CC1 | -9% | 0.9 | 2 | -6 | 1 | Arbovirus anti repeat=0
COC(=O)c1ccccc1NC(=O)/C=C/c1ccco1 | 8% | 0.6 | 16 | -25 | 4
Cn1c(=O)cc(OCC(=O)N2CCN(C3CCCCC3)CC2)c2ccccc21 | 1% | -2.3 | -11 | 16 | ?
CC(C)C(=O)NC(C)C(c1cccs1)N1CCOCC1 (stereo unspecified) | -2% | 0.6 | 2 | -47 | -10
Cc1ccc(S(=O)(=O)Nc2ccc(-n3c(C)nc4ccccc4c3=O)cc2)cc1 | . | 1.3 | . | . | -14
N#C/C(=C\c1ccc(F)cc1)c1n[nH]c(Cn2cncn2)n1 | -5% | 0.6 | 2 | -1 | -9
COc1ccc(C)cc1NC(=O)c1cnc2scc(C)n2c1=O | -3% | . | 3 | 23 | . | Arbovirus anti repeat=5
CC(=O)c1ccccc1OCCCCN1CCCCC1 | . | 1.1 | . | . | -10
CSc1ccc(/C=N/N2CCN(Cc3ccc(C)cc3C)CC2)cc1 | 7% | 0.9 | 11 | . | 1
CC(=O)Nc1ccc(SC[C@H](CC(C)C)N2CCN(CC(C)C)CCC2=O)cc1 | -11% | -4.8 | . | . | -13
CCCCCn1c(CCCNC(=O)CC)nc2ccccc21 | -4% | 0.6 | -2 | -11 | -1 | Arbovirus anti repeat=6
CC(C)(C)NCC(O)COc1ccccc1C(C)(C)C (stereo unspecified) | 12% | -0.4 | -12 | -19 | -5

Structures above containing an NH in an aromatic ring:
SMILES | Mtb H37Rv | RecA intein inh | Arbovirus anti | YopH inh | Mtb bLac sens | others
O=C(Nc1nn[nH]n1)c1ccc(S(=O)(=O)N2CCCCC2)cc1 | -1% | -0.4 | 1 | . | 5
Cc1[nH]c2ccccc2c1C(=O)CSc1ccccc1 | -11% | 4.1 | -6 | -35 | 2
Cc1ccc(C)c(Cn2nnc3c(=O)[nH]c(C4CCN(C(=O)c5cccs5)CC4)nc32)c1 | 54% | 0.5 | -2 | 2 | 19
O=c1[nH]c(NCCO)c(N=Cc2ccccc2)c(=O)[nH]1 | . | -76 | . | . | 0
Cc1ccc(NC(=O)CCn2c(=O)[nH]c3ccsc3c2=O)cc1 | -5% | 1.6 | 1 | . | -5
O=[N+]([O-])c1ccc2nc(CN3CCCCC3)[nH]c2c1 | -4% | -0.3 | 7 | . | -5
O=c1[nH]c(N/N=C/c2cc3c(cc2[N+](=O)[O-])OCO3)nc2ccccc12 | -10% | -0.9 | . | . | -3
COCCCN1CC(=O)N2C(c3ccc(C)cc3)c3[nH]c4ccccc4c3C[C@H]2C1=O (stereo partly specified) | . | 1.9 | . | . | ?
N#C/C(=C\c1ccc(F)cc1)c1n[nH]c(Cn2cncn2)n1 | -5% | 0.6 | 2 | -1 | -9
